UUG fidelity – alters start codon recognition fidelity in yeast | activity score, % at 18.7 µM | actives 0.13% (n = 350,000) | S. cerevisiae UUG-firefly luciferase reporter, luminescence/redox ratio;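 active = replicate mean at a twofold rise or more, about +100% in these data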;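 note: firefly luciferase made from a UUG start codon reports start codon fidelity; reporter light over untreated wells divided by growth signal over untreated wells; some hits fall short of that in this replicate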
Env fusion inh – HIV envelope-mediated fusion inhibition. inhibition, % at 12.3 µM. HeLa-JRFL Env/CEM21 cell fusion, luciferase. actives 1.1% (n = 360,000);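 active = mean replicate inhibition score of at least 50 and every replicate individually at or above 50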;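 note: 0% = plate neutral controls and 100% = maraviroc near 300 nM; one replicate is shown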
* = called active by the depositor; & = joins results of further samples; [ ] = remark or other dose. Not all compounds are listed; rates above refer to the full screens.

1) C[C@@H]1CN([C@@H](C)CO)C(=O)c2cc(NS(=O)(=O)c3ccc(F)cc3)ccc2O[C@@H](C)CCCCO[C@H]1CN(C)S(=O)(=O)c1ccc(F)cc1
2) C[C@@H]1CCCCO[C@@H](CN(C)Cc2ccc(C(=O)O)cc2)[C@H](C)CN([C@@H](C)CO)C(=O)c2cc(NC(=O)CCCN(C)C)ccc2O1
3) C[C@H](CO)N1C[C@H](C)[C@@H](CN(C)Cc2ccc(Oc3ccccc3)cc2)Oc2ccc(NS(=O)(=O)c3cccs3)cc2CC1=O
4) C[C@H](CO)N1C[C@H](C)[C@H](CN(C)C(=O)NC2CCCC2)Oc2ncc(/C=C/c3ccccc3)cc2C1=O
5) C[C@H](CO)N1C[C@H](C)[C@@H](CN(C)C(=O)c2ccncc2)OCCCC[C@H](C)Oc2ccc(NC(=O)Cc3ccccc3)cc2C1=O
screen / no.	1	2	3	4	5
Env fusion inh	-155[16.7 µM]	-6[16.7 µM]	-10[16.7 µM]	3[16.7 µM]	2[16.7 µM]
UUG fidelity	10	-13	-8	-4	21

6) O=C(C[C@@H]1C[C@@H]2c3cc(NC(=O)Nc4ccc(F)cc4)ccc3O[C@@H]2[C@@H](CO)O1)NC1CCCCC1
7) C[C@@H]1CN([C@H](C)CO)C(=O)c2cc(Br)cnc2O[C@@H]1CN(C)Cc1cccc(F)c1
8) Cc1ccc(S(=O)(=O)N(C)C[C@@H]2Oc3cc(C4=CCCC4)ccc3S(=O)(=O)N([C@H](C)CO)C[C@@H]2C)cc1
9) C[C@@H]1CCCCO[C@@H](CN(C)Cc2ccncc2)[C@H](C)CN([C@H](C)CO)C(=O)c2cc(NS(=O)(=O)c3ccc(F)cc3)ccc2O1
10) COc1ccc(S(=O)(=O)N[C@@H]2CC[C@H](CCNC(=O)Cc3ccccn3)O[C@H]2CO)cc1
screen / no.	6	7	8	9	10
Env fusion inh	7[16.7 µM]	21[16.7 µM]	46[16.7 µM]	14[16.7 µM]	-13[16.7 µM]
UUG fidelity	-1	4	-1	-9	5

11) CC(C)C(=O)Nc1ccc2c(c1)C(=O)N(C)[C@H]1CC[C@H](CC(=O)NCCc3ccccc3)O[C@H]1CO2
12) CCNC(=O)C[C@H]1CC[C@H]2[C@@H](COc3ccc(NC(=O)Cc4ccccc4)cc3C(=O)N2C)O1
13) C[C@H](O)C#Cc1ccc2c(c1)O[C@@H](CN(C)C(=O)c1ccccc1)[C@H](C)CN([C@@H](C)CO)S2(=O)=O
14) COc1ccccc1-c1cn(CC[C@@H]2CC[C@H](NS(=O)(=O)c3ccccc3C)[C@H](CO)O2)nn1
15) C[C@@H](NC(=O)C[C@H]1C[C@H]2c3cc(NS(C)(=O)=O)ccc3O[C@H]2[C@@H](CO)O1)c1ccccc1
screen / no.	11	12	13	14	15
Env fusion inh	-3[16.7 µM]	1[16.7 µM]	-1[16.7 µM]	19[16.7 µM]	-2[16.7 µM]
UUG fidelity	3	-12	50	-3	-12

16) COc1ccc(CN(C)C[C@H]2OCCCC[C@@H](C)Oc3ccc(NC(=O)Cc4ccccc4)cc3C(=O)N([C@@H](C)CO)C[C@@H]2C)cc1
17) CNC[C@@H]1OCCCC[C@H](C)Oc2ccc(NS(=O)(=O)c3ccc(C)cc3)cc2C(=O)N([C@@H](C)CO)C[C@@H]1C
18) CN1CCN(C(=O)C[C@H]2CC[C@@H](NC(=O)Nc3ccccc3F)[C@H](CO)O2)CC1
19) C[C@H]1CN([C@@H](C)CO)C(=O)c2cc(/C=C/c3ccccc3)cnc2O[C@H]1CN(C)C(=O)c1ccccc1
20) C[C@@H]1CN([C@H](C)CO)C(=O)c2cccc(NC(=O)Nc3ccc(F)cc3)c2O[C@H]1CN(C)C(=O)Nc1cccc2ccccc12
screen / no.	16	17	18	19	20
Env fusion inh	-44[16.7 µM]	-3[16.7 µM]	9[16.7 µM]	4[16.7 µM]	-10[16.7 µM]
UUG fidelity	16	-6	0	0	1

21) COc1ccc(S(=O)(=O)Nc2ccc3c(c2)C(=O)N([C@H](C)CO)C[C@H](C)[C@H](CN(C)C(=O)c2ccccc2)OCCCC[C@@H](C)O3)cc1
22) C[C@@H]1CN([C@@H](C)CO)S(=O)(=O)c2ccc(-c3ccc(F)cc3)cc2O[C@H]1CN(C)Cc1cccc(F)c1
23) C[C@@H]1CN([C@H](C)CO)C(=O)c2cc(Br)cnc2O[C@@H]1CN(C)C(=O)Nc1ccc(F)cc1
24) CN(C)CCCNC(=O)C[C@@H]1C=C[C@@H](NC(=O)c2ccccc2F)[C@H](CO)O1
25) C[C@@H]1CN([C@H](C)CO)S(=O)(=O)c2ccc(-c3ccccc3)cc2O[C@H]1CN(C)Cc1ccncc1
screen / no.	21	22	23	24	25
Env fusion inh	17[16.7 µM]	46[16.7 µM]	6[16.7 µM]	-2[16.7 µM]	32[16.7 µM]
UUG fidelity	9	-1	-8	1	-6

Four of the entries above in order of the UUG fidelity value, ascending:
15) C[C@@H](NC(=O)C[C@H]1C[C@H]2c3cc(NS(C)(=O)=O)ccc3O[C@H]2[C@@H](CO)O1)c1ccccc1
4) C[C@H](CO)N1C[C@H](C)[C@H](CN(C)C(=O)NC2CCCC2)Oc2ncc(/C=C/c3ccccc3)cc2C1=O
22) C[C@@H]1CN([C@@H](C)CO)S(=O)(=O)c2ccc(-c3ccc(F)cc3)cc2O[C@H]1CN(C)Cc1cccc(F)c1
10) COc1ccc(S(=O)(=O)N[C@@H]2CC[C@H](CCNC(=O)Cc3ccccn3)O[C@H]2CO)cc1
screen / no.	15	4	22	10
Env fusion inh	-2[16.7 µM]	3[16.7 µM]	46[16.7 µM]	-13[16.7 µM]
UUG fidelity	-12	-4	-1	5

Next records
26) C[C@@H]1CN([C@H](C)CO)C(=O)c2cc(NC(=O)Nc3ccc4c(c3)OCO4)ccc2O[C@@H]1CN(C)CC1CCCCC1
27) COCC(=O)Nc1ccc2c(c1)OC[C@@H](C)NC[C@H](C)[C@@H](OC)CN(C)C2=O
28) COc1ccc(-c2cnc3c(c2)C(=O)N([C@H](C)CO)C[C@H](C)[C@H](CN(C)C(=O)Cc2ccncc2)O3)cc1
29) CCC(=O)N[C@H]1C=C[C@H](CC(=O)NCc2ccccc2F)O[C@H]1CO
30) C[C@@H]1CN([C@H](C)CO)C(=O)Cc2cc(NC(=O)CCN3CCOCC3)ccc2O[C@H]1CN(C)CC1CCCCC1
screen / no.	26	27	28	29	30
Env fusion inh	-12[16.7 µM]	3[16.7 µM]	-55[16.7 µM]	4[16.7 µM]	8[16.7 µM]
UUG fidelity	8	-6	84	-8	-8

31) C[C@H](CO)N1C[C@H](C)[C@H](CN(C)C(=O)Nc2ccccc2)Oc2ncc(Br)cc2C1=O
32) C/C=C/c1ccc2c(c1)O[C@@H](CN(C)C(=O)c1cnccn1)[C@@H](C)CN([C@@H](C)CO)S2(=O)=O
33) COc1ccc(S(=O)(=O)N(C)C[C@H]2Oc3ccc(NC(=O)Nc4ccc(F)cc4)cc3CC(=O)N([C@H](C)CO)C[C@@H]2C)cc1
34) C[C@H]1CN([C@@H](C)CO)S(=O)(=O)c2ccc(-c3ccc(F)cc3)cc2O[C@H]1CN(C)C(=O)C1CCOCC1
35) COc1ccc(NC(=O)N(C)C[C@H]2Oc3c(cccc3N(C)C)C(=O)N([C@@H](C)CO)C[C@H]2C)cc1
screen / no.	31	32	33	34	35
Env fusion inh	18&7[16.7 µM]	8[16.7 µM]	7[16.7 µM]	0[16.7 µM]	-1[16.7 µM]
UUG fidelity	5&4	20	-1	8	1

36) COC(=O)C[C@@H]1CC[C@H]2[C@H](COc3ccc(NC(=O)c4cccc(F)c4)cc3C(=O)N2C)O1
37) C/C=C/c1ccc2c(c1)O[C@H](CN(C)Cc1ccccn1)[C@@H](C)CN([C@@H](C)CO)S2(=O)=O
38) C[C@H]1CN([C@@H](C)CO)C(=O)c2cccc(NC(=O)C3CC3)c2O[C@@H]1CN(C)Cc1ccc(Cl)c(Cl)c1
39) C[C@@H]1CN([C@@H](C)CO)C(=O)c2cccc(NC(=O)c3ccc(-c4nccs4)cc3)c2O[C@H]1CN(C)S(=O)(=O)c1ccc(Cl)cc1
40) C[C@@H]1CN([C@@H](C)CO)C(=O)c2cc(/C=C/c3ccccc3)cnc2O[C@H]1CN(C)C(=O)c1ccccc1
screen / no.	36	37	38	39	40
Env fusion inh	-2[16.7 µM]	-8[16.7 µM]	-5[16.7 µM]	-61[16.7 µM]	-1[16.7 µM]
UUG fidelity	7	-14	5	-1	-1

41) CCCC#Cc1cnc2c(c1)C(=O)N([C@H](C)CO)C[C@@H](C)[C@H](CN(C)C(=O)C1CCCCC1)O2
42) O=C(C[C@@H]1C[C@@H]2c3cc(NC(=O)c4cccnc4)ccc3O[C@@H]2[C@@H](CO)O1)NCc1cccc(F)c1
43) O=C(CN1CCOCC1)N[C@@H]1CC[C@@H](CCNC(=O)C2CCCCC2)O[C@H]1CO
44) CC(C)NC(=O)Nc1ccc2c(c1)C(=O)N([C@H](C)CO)C[C@H](C)[C@@H](CN(C)C(=O)Nc1cccc3ccccc13)OCCCC[C@@H](C)O2
45) O=C(C[C@@H]1CC[C@@H](NC(=O)c2cnccn2)[C@@H](CO)O1)NCc1ccccc1F
screen / no.	41	42	43	44	45
Env fusion inh	-12[16.7 µM]	20[16.7 µM]	7[16.7 µM]	-9[16.7 µM]	-4[16.7 µM]
UUG fidelity	5	-8	-15	-1	0

46) C[C@@H]1CN([C@@H](C)CO)C(=O)c2cc(C#CCN(C)C)cnc2O[C@@H]1CN(C)C(=O)CN1CCOCC1
47) Cc1noc(C)c1NC(=O)N(C)C[C@H]1Oc2ccc(NC(=O)C3CCCCC3)cc2CC(=O)N([C@@H](C)CO)C[C@H]1C
48) CNC(=O)C[C@H]1CC[C@@H]2[C@H](COc3ccc(NC(=O)C(C)C)cc3C(=O)N2C)O1
49) Cc1noc(C)c1NC(=O)N(C)C[C@H]1OCCCC[C@H](C)Oc2ccc(NC(=O)NC(C)C)cc2C(=O)N([C@@H](C)CO)C[C@@H]1C
50) C[C@H](CO)N1C[C@H](C)[C@@H](CN(C)C(=O)Nc2ccc3c(c2)OCO3)OCCCC[C@H](C)Oc2ccc(NC(=O)Cc3ccccc3)cc2C1=O
screen / no.	46	47	48	49	50
Env fusion inh	-4[16.7 µM]	8[16.7 µM]	-16[16.7 µM]	-154[16.7 µM]	5[16.7 µM]
UUG fidelity	-10	-11	-5	22	-7

51) C[C@@H]1CN([C@H](C)CO)C(=O)c2cc(C#Cc3ccccn3)cnc2O[C@@H]1CN(C)Cc1ccccc1
52) Cc1ccc(S(=O)(=O)N[C@@H]2C=C[C@@H](CC(=O)NCc3ccccc3F)O[C@@H]2CO)cc1
53) Cc1ccc(S(=O)(=O)N(C)C[C@H]2OCCCC[C@@H](C)Oc3ccc(NS(=O)(=O)c4ccc(Cl)cc4)cc3C(=O)N([C@H](C)CO)C[C@H]2C)cc1
54) Cc1ccc(S(=O)(=O)N(C)C[C@H]2Oc3c(NS(=O)(=O)c4ccc(F)cc4)cccc3C(=O)N([C@H](C)CO)C[C@@H]2C)cc1
55) Cc1noc(C)c1NC(=O)N(C)C[C@H]1Oc2ccc(NS(=O)(=O)c3cn(C)cn3)cc2CC(=O)N([C@@H](C)CO)C[C@@H]1C
screen / no.	51	52	53	54	55
Env fusion inh	-26[16.7 µM]	-5[16.7 µM]	13[16.7 µM]	-69[16.7 µM]	-25[16.7 µM]
UUG fidelity	-8	-3	2	0	-10

56) C[C@@H]1CN([C@H](C)CO)C(=O)Cc2cc(NC(=O)Cn3cnnn3)ccc2O[C@@H]1CN(C)C(=O)Nc1cccc2ccccc12
57) COc1ccccc1NC(=O)N[C@H]1C=C[C@H](CC(=O)NCc2ccc(Cl)c(Cl)c2)O[C@H]1CO
58) C[C@@H]1CN([C@H](C)CO)C(=O)c2cc(C#CCc3ccccc3)cnc2O[C@@H]1CN(C)C(=O)C1CCC1
59) C[C@@H]1CN([C@@H](C)CO)C(=O)Cc2cc(NS(=O)(=O)c3ccccc3)ccc2O[C@H]1CN(C)C(=O)Nc1ccc(C(F)(F)F)cc1
60) COc1ccc(S(=O)(=O)N(C)C[C@@H]2Oc3c(NC(=O)c4nc5ccccc5s4)cccc3C(=O)N([C@@H](C)CO)C[C@@H]2C)cc1
61) Cc1noc(C)c1NC(=O)N[C@H]1CC[C@H](CC(=O)N2CCCCC2)O[C@H]1CO
62) CC(C)NC(=O)Nc1ccc2c(c1)C(=O)N([C@@H](C)CO)C[C@@H](C)[C@H](CN(C)S(=O)(=O)c1ccccc1)OCCCC[C@H](C)O2
63) O=C(NCC[C@@H]1CC[C@@H](NC(=O)c2ccccc2F)[C@@H](CO)O1)c1cnccn1
screen / no.	56	57	58	59	60	61	62	63
Env fusion inh	20[16.7 µM]	-2[16.7 µM]	13[16.7 µM]	3[16.7 µM]	16[16.7 µM]	-5[16.7 µM]	-13[16.7 µM]	-10[16.7 µM]
UUG fidelity	-2	-2	-4	9	3	-5	-8	-4

Some values from the results shown.
`C[C@@H]1CN([C@H](C)CO)C(=O)Cc2cc(NC(=O)Cn3cnnn3)ccc2O[C@@H]1CN(C)C(=O)Nc1cccc2ccccc12` | UUG fidelity = -2
`CC(C)NC(=O)Nc1ccc2c(c1)C(=O)N([C@@H](C)CO)C[C@@H](C)[C@H](CN(C)S(=O)(=O)c1ccccc1)OCCCC[C@H](C)O2` | UUG fidelity = -8
`C[C@@H]1CN([C@H](C)CO)C(=O)c2cc(C#CCc3ccccc3)cnc2O[C@@H]1CN(C)C(=O)C1CCC1` | Env fusion inh = 13[16.7 µM]

Compound activity deposited in PubChem by Broad Institute.
